# Compound activity from PubChem BioAssay.
# B2AR ag: beta2AR agonists driving receptor internalization, primary screen, cell-based, FAP fluorogen, flow cytometry. Beta-2 adrenergic receptor (Homo sapiens), P07550. Am2.2-beta2AR cells; reference of the scale not given here. response, % (no concentration beside the values). 0.43% of 340,000 active. AID 504454, 2011;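 active means response above a set limit, near 3 SD of response in nonfluorescent compounds, cut at about 42% in these data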;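 further: stock transfer was 100 nL into about 11 µL; a reference agonist was the positive control; negative values mostly stem from fluorescent compounds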
# Target sequence (P07550 whole entry, looked up): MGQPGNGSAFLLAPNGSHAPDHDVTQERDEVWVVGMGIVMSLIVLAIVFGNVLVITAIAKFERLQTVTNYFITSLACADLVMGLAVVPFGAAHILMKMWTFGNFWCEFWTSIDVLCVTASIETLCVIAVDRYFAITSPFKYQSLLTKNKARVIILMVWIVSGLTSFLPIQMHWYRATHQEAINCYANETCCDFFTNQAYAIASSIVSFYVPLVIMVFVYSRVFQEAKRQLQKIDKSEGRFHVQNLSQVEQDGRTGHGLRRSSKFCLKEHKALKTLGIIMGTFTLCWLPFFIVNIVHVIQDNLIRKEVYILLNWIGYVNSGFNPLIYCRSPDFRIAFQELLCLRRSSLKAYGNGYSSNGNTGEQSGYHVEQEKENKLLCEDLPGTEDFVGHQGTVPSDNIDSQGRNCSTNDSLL
# Vif TR-FRET: inhibitors of Vif binding to APOBEC3G peptide, primary screen, biochemical, TR-FRET, GST-Vif 1-94, biotin-A3G peptide, dose response retest (AID 1117319); Virion infectivity factor (Human immunodeficiency virus type 1 group M subtype B (isolate …; TR-FRET GST-Vif / biotin-A3G peptide binding; higher % means a stronger effect; test concentration not given here; strong numbers were not always called active; one-dose inhibition, %; IC50 in µM for titrated hits; 0.57% of 260,000 active;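 active means above the screen mean plus three standard deviations and confirmed in dose response; inconclusive means results disagree or hit not tested in dose response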;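 further: Vif residues 1-94 fused to GST binding biotinylated APOBEC3G peptide 110-148; 0% = full assay without inhibitor and 100% = GST in place of GST-Vif; retest series ran down from 100 µM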
# ALR inh: inhibitors of human ALR sulfhydryl oxidase, primary screen, biochemical, H2O2 detection, HRP-luminol luminescence, single point | 3.8% of 290,000 active | purified ALR, DTT oxidation | inhibition, % (concentration not given with the values) | AID 485317, 2010;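 active means mean and each replicate at 75% or more; inconclusive means only one of the two met; inactive means neither met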;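 further: stock transfer was 7.5 nL into about 7.5 µL; 0% = neutral wells and 100% = wells with inactivated enzyme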
# Target sequence (P55789 whole entry, looked up): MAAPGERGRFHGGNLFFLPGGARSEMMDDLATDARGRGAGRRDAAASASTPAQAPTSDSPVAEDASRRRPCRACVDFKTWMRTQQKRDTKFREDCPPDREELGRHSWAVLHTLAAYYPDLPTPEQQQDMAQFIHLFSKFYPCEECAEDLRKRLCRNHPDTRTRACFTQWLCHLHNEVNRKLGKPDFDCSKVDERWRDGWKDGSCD
# HNF4A DNA FP: change in binding of human HNF4A to DNA, primary screen, biochemical, fluorescence polarization, FITC-DNA; 0.3% of 360,000 active; activity change, % at 10 µM; Hepatocyte nuclear factor 4-alpha (Homo sapiens), P41235; AID 1224865, 2016; 1 h; in the data active means activity change above about 30%, passing the limit was not always enough;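 further: controls were the assay level and a saturating level of protein; the project sought stronger binding though the title names inhibitors; some compounds called inactive have numbers as strong as hits; positive values seem to mean higher polarization but the record does not say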
# Target sequence (P41235 whole entry, looked up): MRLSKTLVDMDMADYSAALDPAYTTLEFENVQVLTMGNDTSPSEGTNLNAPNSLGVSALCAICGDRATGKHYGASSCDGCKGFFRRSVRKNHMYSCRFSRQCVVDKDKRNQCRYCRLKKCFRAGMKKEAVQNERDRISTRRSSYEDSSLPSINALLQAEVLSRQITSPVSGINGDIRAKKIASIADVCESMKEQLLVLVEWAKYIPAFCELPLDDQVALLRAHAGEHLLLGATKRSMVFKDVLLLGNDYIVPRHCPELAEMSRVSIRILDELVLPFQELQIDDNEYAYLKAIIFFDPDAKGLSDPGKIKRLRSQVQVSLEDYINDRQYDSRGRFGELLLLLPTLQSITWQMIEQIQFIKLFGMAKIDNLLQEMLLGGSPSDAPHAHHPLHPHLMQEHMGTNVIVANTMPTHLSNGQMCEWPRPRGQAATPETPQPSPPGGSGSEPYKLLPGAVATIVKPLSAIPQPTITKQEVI
# RanGTP-Imp inh: inhibitors of RanGTP-importin-beta interaction, primary screen, biochemical, FRET, CFP-Ran, YFP-importin-beta, homogeneous. 1.1% of 300,000 active. cell-free CFP-Ran/YFP-importin-beta FRET ratio. inhibition, % (no concentration beside the values). Ran GTPase (GTP-bound) - importin-beta complex;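 active means most replicates above 15%; inconclusive means exactly half above 15%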;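 further: 0% = DMSO wells and 100% = Ran loaded with GDP instead of GTP; wells of about 40 µL received 100 nL stock; the first replicate is given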
# Calb FLC: C. albicans growth inhibition with fluconazole, primary screen, CaCi-2 strain, Alamar Blue fluorescence; growth inhibition, % (no concentration beside the values); 0.57% of 300,000 active; C. albicans CaCi-2 (fluconazole-resistant clinical isolate) + fluconazole, 48 h; AID 1979, 2009;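 active means most replicates above 75%; inconclusive means exactly half above 75%; inactive means most below 75%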;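 further: all wells also contain fluconazole at 8 µg/ml as a sub-toxic cotreatment; 0% = median of DMSO wells and 100% = median of geldanamycin control wells; wells of about 8 µL received 7.5 nL stock; the first replicate is given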
# LANA-H2A inh: blockers of LANA interaction with H2A/H2B – biochemical, FP readout, HTS, primary screen; Protein LANA1 (Human herpesvirus 8 type P (isolate GK18)), Q9QR71; cell-free LANA-H2A/H2B peptide, fluorescence polarization; inhibition, % (concentration not given with the values); 0.6% of 320,000 active; AID 2629, 2010; in the data active means inhibition mostly above about 10%, no sharp cut-off; inactive means mostly below about 6.7%;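 further: stock transfer was 7.5 nL into about 10 µL; 0% = median of vehicle wells and 100% = median of positive control wells; one replicate is shown; the record names a cut of 25% in any replicate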
# Starred values were filed as active, the others as inactive; ? = inconclusive; / = not tested or not shown; & = joins results of further samples.
SMILES,B2AR ag,Vif TR-FRET,ALR inh,HNF4A DNA FP,RanGTP-Imp inh,Calb FLC,LANA-H2A inh
COCc1cc(C)n(CC(=O)Nc2ccc(Cl)cc2Cl)c(=O)c1C#N,11,-81%,-4,-4.2,-2.4,0,2.0
COc1ccc(C(=O)CC(=O)C(=O)Nc2ccccc2OC)cc1,18,-2%,13,1.0,2.7,-13,3.5
O=C(O)c1c(N2CCCCC2)ccc([N+](=O)[O-])c1N1CCCCC1,-7,4%,-12,-1.0,-0.3,16,-0.8
COc1ccc2c(c1)CCc1c-2nc2ccccc2c1N1CCOCC1,0,-25%,-19,2.7,4.1,-9,-3.8
CC1=C(C)[N+](=O)C2(O)CCCCC2(C)N1[O-] (stereo not given),1,3%,-5,0.9,0.9,-5,-0.5
CN1CCC/C1=C1/C(=O)N(c2ccccc2)N=C1NC(=O)Nc1cccc(Cl)c1,-2,17%,-18,1.4,2.4,?,3.6
O=C(Nc1cc(F)ccc1F)C1CCCN(c2ncnc3c2nc2n3CCCCC2)C1 (stereo not given),1,/,-6,1.5,3.5,16,-0.1
CCOC(=O)C1=CN(Cc2cccc(-c3cccnc3)c2)S(=O)(=O)N(CC)C1C (stereo not given),-6,-7%,/,2.2,/,/,/
Cc1ccnn1-c1ccc(C(=O)NCc2ccccc2CN2CCOCC2)cc1,-14,4%,-4,-1.2,/,/,-2.5
O=c1c(Cl)c(NCc2ccccc2)cnn1C12CC3CC(CC(C3)C1)C2,-11,-6%,-1,-0.4,1.6,?,0.2
CN(c1ccccc1)S(=O)(=O)c1cccc(C(=O)NCCc2c[nH]c3ccccc23)c1,-9,/,-5,0.1,-3.9,1,-6.1
CCOc1ccc(OCC)c(-c2c(=O)n(OCc3ccc(Cl)cc3)c3ccccc3[n+]2[O-])c1,-3,3%,1,-0.4,-0.7,23,2.7
Cc1cc(=O)[nH]c2ccc(S(=O)(=O)N3CCOCC3)cc12,0,-3%,-15,-0.9,2.0,-9,-0.8
CSCCC(NS(=O)(=O)c1ccc2c(c1)OCCO2)C(=O)NCCc1ccccn1 (stereo not given),-3,2%,2,-1.9,-1.4,-1,2.0
CCOc1ccccc1NC(=O)NC1CCCCCCC1,-4,/,-14,1.9,/,7,3.0
COc1ccccc1CC(=O)Nc1cccc2ccccc12,-1,-4%,-23,2.3,-1.8,-8,-0.1
O=C(NC(=S)N1CCCC1)c1ccccc1F,-3,0%,5,0.9,/,/,2.7
Cc1nc(S/C(=C/c2ccc(-c3cccc(Cl)c3)o2)C(=O)O)n[nH]1,4,21%,10,26,4.2,0,4.1
Cc1ccc(C(=O)NC(=S)Nc2c(C)ccc3nsnc23)cc1,10,-5%,-8,-2.8,-4.3,9,-6.7
COc1ccc(OC)c(/C=N/NC2=NS(=O)(=O)c3ccccc32)c1,-8,-2%,16,-1.1,-0.5,1,0.0

# Only RanGTP-Imp inh and LANA-H2A inh, for three of the compounds above:
Structure	RanGTP-Imp inh	LANA-H2A inh
Cc1cc(=O)[nH]c2ccc(S(=O)(=O)N3CCOCC3)cc12	2.0	-0.8
CSCCC(NS(=O)(=O)c1ccc2c(c1)OCCO2)C(=O)NCCc1ccccn1 (stereo not given)	-1.4	2.0
CCOc1ccccc1NC(=O)NC1CCCCCCC1	/	3.0

# Going on with the list:
SMILES,B2AR ag,Vif TR-FRET,ALR inh,HNF4A DNA FP,RanGTP-Imp inh,Calb FLC,LANA-H2A inh
CCN(CC)S(=O)(=O)c1ccc2oc(C(=O)NCc3ccc(F)cc3)c(C)c2c1,7,-5%,-3,1.3,/,/,-3.4
COc1ccccc1C(=O)N/C(=C\c1cn(C)c2ccccc12)C(=O)NCCCn1ccnc1,3,3%,8,0.7,-4.2,6,2.5
O=C(O)c1sccc1NC(=O)c1c(Cl)cccc1Cl,-11,-3%,3,3.0,6.0,-6,2.1
CN(C)S(=O)(=O)c1cccc(NC(=S)N/N=C/c2cccc(O)c2)c1,3,-4%,25,-2.9,-1.7,-19,1.6
O=C(O)Cn1cc2c(n1)CCCCC2,3,-3%,0,-2.0,4.7,-6,5.7
CC(C(=O)NC1CCCC1)N(Cc1ccc2c(c1)OCO2)C(=O)c1snc(C(N)=O)c1N (stereo not given),-6,2%&3%,3,6.3,12,19,1.4
O=C(O)C1CC=CCC1C(=O)c1ccccc1 (stereo not given),3,1%,-8,1.3,3.1,3,-0.1
Cc1cc(NC(=O)C2CC2)n(-c2nc3ccccc3s2)n1,-2,/,-4,-4.0,-1.1,14,-0.4
CC(=O)Nc1ccc(-c2csc(NC(=O)CN3C(=O)NC4(CCCC4)C3=O)n2)cc1,-1,8%,/,1.7,1.7,-3,0.1
Oc1ccc(C[C@H]2CNC(=S)N2CCc2cc(C(F)(F)F)cc(C(F)(F)F)c2)cc1,11,32%,-11,-0.2,?,15,1.7
O=C(C1CCN(c2ncnc3c2nc2n3CCCCC2)CC1)N1CCN(c2cccc(Cl)c2)CC1,19,/,-5,3.8,5.9,18,-2.1
COc1ccc(CN2CCC(Oc3ccc(C(=O)N4CCCCC4)cc3)CC2)cc1C,33,/,-23,-0.3,4.0,-3,-2.6
Cc1nn(C)c(NC(=O)c2ccccc2Cl)c1Br,-10,-3%,0,-2.1,2.8,-1,-4.8
C=CCn1c(=S)sc2c(=O)[nH]c(C)nc21,-6,1%,-3,0.4,-0.3,-12,1.2
Cc1ccc(C)c(N2CCN(CCCc3ccccc3)CC2)c1,10,/,-8,0.3,-1.2,5,-1.1
CC1(C)C2CCC1(CS(=O)(=O)NCc1ccc(C(=O)O)cc1)C(=O)C2 (stereo not given),-3,7%,0,-2.1,3.2,27,2.4
CCCCc1n[nH]c2c1C(=O)CC(C)(C)C2,-5,28%,2,1.9,1.1,-4,0.4
Cc1ccc(NC(=O)N2CCN(S(=O)(=O)c3ccccc3)CC2)cc1,-2,/,-14,4.1,-1.3,-7,-1.8
C#CCOCCOCCOCCNc1nc(N2CCN(C(=O)[C@H](CCCN=C(N)N)n3cc(C(N)[C@@H](C)CC)nn3)CC2)nc(N2CCN(C(=O)[C@H](CCC(=O)O)n3cc([C@@H](N)CC(N)=O)nn3)CC2)n1 (stereo not given in full),2,5%,36,0.5,/,/,-422
COCCn1c(=S)[nH]c2cc(C(=O)N3CCN(Cc4ccc5c(c4)OCO5)CC3)ccc2c1=O,-5,2%,7,-2.0,/,/,4.0
Cc1ccc(C2=C(O)c3ccccc3C(=O)C2=O)cc1,-1,/,-12,-1.4,-2.4,27,0.3
COC(=O)CN1C(=O)[C@H]2[C@@H](C3CC3)N3C(=O)CN(CCO)C(=O)[C@@]3(Cc3ccccc3)[C@H]2C1=O,1,/,-17,2.9,5.3,-6,-2.1
COc1ccc2oc(C(=O)OCC(=O)N(CC(C)C)c3c(N)n(Cc4ccccc4)c(=O)[nH]c3=O)c(C)c2c1,7,/,7,3.4,-0.4,5,3.6
COC(=O)CN1C(=O)C(O)=C(C(C)=O)C1c1ccc([N+](=O)[O-])cc1 (stereo not given),-6,>100µM*,-9,4.2,0.6,?,1.7
COc1ccc(CCNC(=O)N2CCOCC2)cc1,2,?,-1,-2.2,0.7,?,7.7
N#CCOC(=O)/C=C/c1ccc2c(c1)OCO2,4,-9%,-2,3.8,2.2,9,1.7
COc1ccccc1C1(CCN=Cc2ccc(N(C)C)cc2)CCOC(C)(C)C1 (stereo not given),-2,8%,0,1.4,-2.7,-25,-0.7
CC(Sc1nnc(COc2ccccc2)n1Cc1ccccc1)C(=O)O (stereo not given),-1,/,4,2.7,0.5,0,-2.3
COC(=O)CCCC1=CC2=CC(=O)C(C)(O)C(=O)C2=CO1 (stereo not given),/,/,/,/,-4.0,5,0.4
CN(C)CCNC(=O)CCCNC(=O)Cn1cnc2sc3c(c2c1=O)CCCC3,-11,-1%,/,0.2,-2.0,?,-0.3
CCC(=O)Nc1cccc(SC)c1,-9,-8%,-2,-3.4,2.4,-7,-8.7
N/C(=N\OC(=O)Cc1cccs1)c1cccc([N+](=O)[O-])c1,0,-1%,/,-1.5,-0.2,12,/
COc1cccc(Nc2ncnc3onc(-c4ccccc4OC)c23)c1,-8,/,3,0.6,1.2,-13,-9.7
COc1ccc(OC)c(-n2c(-c3cc(-c4ccco4)[nH]n3)n[nH]c2=S)c1,-11,?,67,-1.6,?,-6,-3.8
CN(C)CC(C)(C)NS(=O)(=O)c1ccc(Cl)cc1,15,6%,0,-2.4,2.0,-7,-0.8
CC(C)N1CCc2c(sc(NC(=O)CCS(=O)(=O)c3ccccc3)c2C(N)=O)C1,-3,-3%,-3,2.6,153*,9,-3.4
Cc1ccsc1C(=O)NC(C)c1ccc2c(c1)OCO2 (stereo not given),10,1%,-2,-3.6,4.2,-23,-1.5
CCN(CC)S(=O)(=O)c1ccc(C)c(NC(=S)N2CCN(C/C=C/c3ccccc3)CC2)c1,-10,-5%,-20,-2.0,1.1,-23,-0.4
CCCc1cc(C(=O)N2CCCC(CO)(CCCc3ccccc3)C2)n(C)n1 (stereo not given),-7,-5%,-18,-1.1,6.5,-10,-8.6
NC(=O)C1CCN(C(=O)CN(C2CCCCC2)S(=O)(=O)c2ccc(F)cc2)CC1,2,-5%,5,-1.6,?,-5,-4.5
COc1cccc(C(=O)Nc2c(C)n[nH]c2C)c1,-4,?,-6,1.9,2.4,7,-1.3
COC(=O)C1=C(C(=O)OC)[C@@H]2Nc3ccccc3[C@@]23C[C@@H](C(=O)OC)N=C3N1,-5,1%,34,-9.5,-4.0,-2,-1.7
COc1ccccc1C(=O)NCC(=O)NC(C)CCc1ccccc1 (stereo not given),-9,/,-2,-0.6,3.0,-21,-0.5
Cn1c(=O)c2c(nc3n2CC(O)CN3c2ccc(O)cc2)n(C)c1=O (stereo not given),-11,4%,99*,-0.4,3.9,0,-0.1
Cc1ccc(C23CC4CC(CC(C(=O)NC(C)C(N)=O)(C4)C2)C3)cc1 (stereo not given),1,/,-4,3.4,2.1,-2,-0.2
CCOc1cc(N2CCOCC2)c(OCC)cc1NC(=O)c1ccccc1,-4,6%,25,1.4,-0.9,9,1.6
Cc1ccc(-c2noc(CC(c3ccccc3)c3ccccc3)n2)cc1,1,6%,-1,2.7,5.6,-8,2.5
Cc1ccc(CNC(=O)c2ccc(N3CCC4(CC3)CC(c3ccccc3)=NO4)c(N)c2)cc1,-12,/,2,-4.2,1.0,2,-1.7
COc1cccc(C(=O)NCCNC(=O)c2ccccn2)c1,2,/,-1,1.5,0.2,-6,-5.8
COC(=O)CCCC1=CC2=C(c3ccccc3)C(=O)C(C)(OC(=O)C3CCCC3)C(=O)C2=CN1C1CCCC1 (stereo not given),-13,/,-18,2.5,-0.2,42,8.5
# Carrying on.
SMILES,B2AR ag,Vif TR-FRET,ALR inh,HNF4A DNA FP,RanGTP-Imp inh,Calb FLC,LANA-H2A inh
Cc1cccc(NC(=O)c2ccc(CN3CCN(Cc4ccccc4)CC3)cc2)c1,2,1%,-9,-3.1,3.0,-22,0.9
CC(=O)c1ccc(N2CCN(CC(O)COC(c3ccccc3)c3ccccc3C)CC2)cc1 (stereo not given),10,0%,-3,0.2,-3.5,7,-3.4
Cc1ccc2cccc(NC3OC(=O)c4ccccc43)c2n1 (stereo not given),-10,/,-2,3.8,5.4,14,-1.1
C/C(=N\NC(=O)c1ccccc1)c1ccccc1Br,-3,5%,-4,1.0,-2.9,-1,0.2
